# Screening results: PubChem BioAssay, Broad Institute
# AF4-AF9 inh – inhibitors of AF4 peptide binding to AF9, primary screen, biochemical, AlphaScreen, biotin-AF4 peptide, FLAG-AF9, single point; 0.47% of 350,000 active; Protein AF-9 (Homo sapiens), P42568; AID 651704, 2012; inhibition, % at 10 µM;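 active = every replicate reaching a set inhibition limit, whatever the replicate mean, cut at about 25% in these data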;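 note: 0% = plate neutral control median and 100% = total signal loss; the record names both 10 and 1 µM as test concentration; the first replicate is given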
# Target sequence (P42568 whole entry, looked up): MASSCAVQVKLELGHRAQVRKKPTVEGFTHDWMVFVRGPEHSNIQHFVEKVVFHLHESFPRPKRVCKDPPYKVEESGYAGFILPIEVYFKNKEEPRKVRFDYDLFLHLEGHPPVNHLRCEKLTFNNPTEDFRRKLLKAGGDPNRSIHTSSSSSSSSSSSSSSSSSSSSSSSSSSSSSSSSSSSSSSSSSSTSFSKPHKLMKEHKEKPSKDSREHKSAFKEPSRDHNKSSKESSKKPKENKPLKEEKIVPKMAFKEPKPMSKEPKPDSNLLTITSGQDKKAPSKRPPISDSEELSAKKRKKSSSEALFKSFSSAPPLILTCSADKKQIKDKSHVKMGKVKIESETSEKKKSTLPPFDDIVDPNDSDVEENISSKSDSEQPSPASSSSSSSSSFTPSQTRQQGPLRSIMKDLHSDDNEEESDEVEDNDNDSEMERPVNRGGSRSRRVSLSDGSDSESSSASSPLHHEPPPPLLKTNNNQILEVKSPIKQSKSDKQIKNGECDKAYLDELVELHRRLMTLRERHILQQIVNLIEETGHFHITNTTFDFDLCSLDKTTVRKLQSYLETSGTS
# FGF22 binding – binders of human FGF22 protein, primary screen, FGF22 synaptogenesis inhibitor project, biophysical, thermal shift, single point | Fibroblast growth factor 22 (Homo sapiens), Q9HCT0 | recombinant FGF22 thermal shift, SYPRO orange fluorescence; percent of sucrose octasulfate shift, DMSO zero | calls only at 9.99 µM | 1.5% of 340,000 active;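 active = melting point raised past a set limit in the mean and every replicate; three in four hits are not shown here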
# Target sequence (Q9HCT0 whole entry, looked up): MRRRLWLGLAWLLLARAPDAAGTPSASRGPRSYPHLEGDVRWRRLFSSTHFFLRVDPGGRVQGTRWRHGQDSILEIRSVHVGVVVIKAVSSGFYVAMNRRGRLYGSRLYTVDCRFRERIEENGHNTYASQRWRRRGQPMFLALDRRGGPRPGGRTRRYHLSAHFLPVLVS
# * = called active by the depositor; i = inactive; + = active, no number; & = joins results of further samples. An excerpt. The share of hits here may be higher or lower than overall.
# Values run as follows: AF4-AF9 inh | FGF22 binding
(1) Cc1ccc(S(=O)(=O)N(C)C[C@@H]2Oc3c(NC(=O)Nc4cccc5ccccc45)cccc3C(=O)N([C@@H](C)CO)C[C@H]2C)cc1
  0.4 | i
(2) COc1cccc(NC(=O)N[C@@H]2C=C[C@@H](CC(=O)NCc3ccccn3)O[C@@H]2CO)c1
  -1.4 | i
(3) N#Cc1ccc(-c2ccc([C@H]3[C@@H](CO)N4CCCCN(C(=O)Nc5ccc(F)cc5)C[C@H]34)cc2)cc1
  -0.1 | i
(4) CN1CCCCN2[C@H](CO)[C@H](c3ccc(C#Cc4ccccc4F)cc3)[C@H]2C1
  16.2 | i
(5) Cc1cc(C(=O)Nc2cccc3c2O[C@@H](CN(C)S(=O)(=O)c2cccs2)[C@H](C)CN([C@@H](C)CO)C3=O)n(C)n1
  -11.8 | i
(6) Cc1cc(N=O)no1
  -3.4 | i
(7) Cc1noc(C)c1S(=O)(=O)Nc1ccc2c(c1)C(=O)N([C@@H](C)CO)C[C@H](C)[C@H](CN(C)Cc1ccncc1)O2
  -1.2 | i
(8) Cc1ccccc1-c1ccc2c(c1)O[C@@H](CN(C)C)[C@H](C)CN([C@H](C)CO)S2(=O)=O
  2.0 | i
(9) CC(C)NC(=O)N[C@H]1C=C[C@H](CC(=O)NCCN2CCCC2)O[C@@H]1CO
  -4.1 | i
(10) C[C@H]1CCCCO[C@H](CN(C)C(=O)C2CCCCC2)[C@@H](C)CN([C@@H](C)CO)C(=O)c2cc(NS(C)(=O)=O)ccc2O1
  -5.2 | i
(11) CCCNC(=O)N1[C@H](CO)[C@@H](c2ccccc2)[C@@H]1CNC(=O)c1ccccc1
  -0.5 | i
(12) CC1C=NC(S(=O)(=O)N2CC[C@@H]3[C@H]2c2cc(-c4ccccc4)ccc2N(C)[C@H]3CO)=N1 (some centres not stated)
  3.4 | i
(13) C[C@@H]1CN([C@@H](C)CO)S(=O)(=O)c2ccc(C#CC3CC3)cc2O[C@H]1CN(C)CC1CCOCC1
  7.5 | i
(14) C[C@H]1CN([C@@H](C)CO)C(=O)Cc2cc(NC(=O)Nc3ccc(F)cc3)ccc2O[C@@H]1CN(C)S(=O)(=O)c1ccccc1
  0.1 | i
(15) CS(=O)(=O)Nc1ccc2c(c1)[C@@H]1C[C@H](CC(=O)NCc3ccncc3)O[C@H](CO)[C@@H]1O2
  1.5 | i
(16) CN(C)CC(=O)Nc1ccc2c(c1)[C@@H]1C[C@@H](CC(=O)NCC3CC3)O[C@@H](CO)[C@@H]1O2
  0.9 | i
(17) Cc1ccc(S(=O)(=O)N[C@@H]2C=C[C@H](CC(=O)NCc3ccc(Cl)c(Cl)c3)O[C@@H]2CO)cc1
  -0.6 | i
(18) CC=Cc1ccc2n(c1=O)C[C@H]1[C@H](CO)[C@@H](C(=O)N[C@@H](C)c3ccccc3)[C@@H]2N1CC (mixture of isomers)
  -2.1 | i
(19) CC=Cc1ccc2n(c1=O)C[C@H]1[C@H](CO)[C@@H](C(=O)N3CCC(Cc4ccccc4)CC3)N(CC)[C@@H]21 (mixture of isomers)
  -1.3 | i
(20) COc1ccc2c3c([nH]c2c1)[C@@H](CO)N(C(=O)c1cccc(F)c1)CC31CN(C(C)=O)C1
  2.1 | i
(21) COc1cccc(-c2cnc3c(c2)C(=O)N([C@H](C)CO)C[C@H](C)[C@H](CN(C)CC2CCCC2)O3)c1
  -1.2 | i
(22) CCNC(=O)Nc1ccc2c(c1)C(=O)N(C)[C@H]1CC[C@H](CC(=O)Nc3ccccc3Cl)O[C@@H]1CO2
  -15.6 | i
(23) CC(C)CC#Cc1ccc2c(c1)O[C@@H](CN(C)C(=O)NC(C)C)[C@@H](C)CN([C@@H](C)CO)S2(=O)=O
  2.1 | i
(24) C[C@H]1CN([C@@H](C)CO)C(=O)c2cccc(NC(=O)C3CCCCC3)c2O[C@H]1CN(C)S(C)(=O)=O
  -3.8 | i
(25) O=C(C[C@H]1C[C@@H]2c3cc(NC(=O)Nc4ccccc4)ccc3O[C@@H]2[C@H](CO)O1)NCc1ccccc1
  2.6 | i
(26) O=C(Nc1cc(Cl)cc(Cl)c1)N[C@H]1CC[C@H](CCNS(=O)(=O)c2cccc(F)c2)O[C@@H]1CO
  -0.3 | +
(27) C[C@H]1CCCCO[C@@H](CN(C)C(=O)CCC(F)(F)F)[C@@H](C)CN([C@@H](C)CO)C(=O)c2cc(NS(=O)(=O)c3cn(C)cn3)ccc2O1
  -1.2 | i
(28) C[C@H]1CN([C@@H](C)CO)S(=O)(=O)c2ccc(-c3ccncc3)cc2O[C@@H]1CN(C)C(=O)c1cccc(F)c1
  0.8 | i
(29) C[C@@H]1CCCCO[C@@H](CN(C)C(=O)Nc2ccc(F)cc2)[C@H](C)CN([C@@H](C)CO)C(=O)c2cc(NC(=O)c3ccncc3)ccc2O1
  1.2 | i
(30) COc1ccc(-c2cn(CC[C@@H]3CC[C@@H](NC(=O)CCN4CCCCC4)[C@@H](CO)O3)nn2)cc1
  1.2 | i
(31) COc1ccc(S(=O)(=O)Nc2ccc3c(c2)C(=O)N([C@@H](C)CO)C[C@H](C)[C@@H](CN(C)Cc2ccc(Cl)c(Cl)c2)O3)cc1
  -0.6 | i
(32) CCC(=O)Nc1ccc2c(c1)C(=O)N(C)C[C@@H](OC)[C@@H](C)CN(CC1CC1)[C@H](C)CO2
  -0.6 | i
(33) CC=Cc1ccc2n(c1=O)C[C@@H]1[C@@H](CO)[C@H](C(=O)NCCc3ccncc3)[C@H]2N1Cc1ccncc1 (mixture of isomers)
  -1.5 | i
(34) Cc1ccc(S(=O)(=O)N(C)C[C@@H]2Oc3ccc(NS(C)(=O)=O)cc3C(=O)N([C@@H](C)CO)C[C@H]2C)cc1
  -1.0 | i
(35) Cc1noc(C)c1S(=O)(=O)Nc1ccc2c(c1)C(=O)N([C@@H](C)CO)C[C@@H](C)[C@H](CN(C)Cc1ccc3c(c1)OCO3)OCCCC[C@H](C)O2
  -0.5 | i
(36) C[C@H]1CN([C@@H](C)CO)S(=O)(=O)c2ccc(-c3cccc(C(=O)N(C)C)c3)cc2O[C@@H]1CN(C)C(=O)Nc1ccccc1
  -10.4 | i
(37) CCCNC(=O)N[C@H]1C=C[C@@H](CC(=O)N2CCN(C)CC2)O[C@@H]1CO
  6.4 | i
(38) C=CC[C@]12N=C(c3ccc(OCCCO)cc3)O[C@H]1c1ccccc1CN(Cc1ccccc1)C2=O
  3.0 | i
(39) CO[C@H]1O[C@H](CO)[C@@H](OC(=O)Nc2ccccc2)[C@H](OC(=O)Nc2ccc3c(c2)OCO3)[C@H]1OC(=O)Nc1ccc2c(c1)OCO2
  2.4 | i
(40) CN(C)CC(=O)N1[C@@H](C#N)[C@H](c2ccc(-c3ccccc3F)cc2)[C@@H]1CO
  1.6 | i
(41) CC(=O)N(C)C[C@H]1Oc2cc(C#Cc3cccnc3)ccc2S(=O)(=O)N([C@H](C)CO)C[C@@H]1C
  -1.0 | i
(42) C[C@@H]1CN([C@@H](C)CO)C(=O)c2cccc(NC(=O)Nc3ccc(C(F)(F)F)cc3)c2O[C@@H]1CN(C)S(=O)(=O)c1cccs1
  -0.7 | i
(43) C[C@H](CO)N1C[C@H](C)[C@H](CN(C)Cc2ccc(Oc3ccccc3)cc2)Oc2c(NC(=O)Nc3cccc4ccccc34)cccc2C1=O
  3.8 | i
(44) O=C([C@H]1[C@H](CO)[C@H]2Cn3c(ccc(C4=CCCC4)c3=O)[C@@H]1N2Cc1nccs1)N1CCCCC1
  -0.6 | i
(45) C[C@H](O)C#Cc1ccc2c(c1)O[C@H](CN(C)C(=O)Nc1ccccc1)[C@H](C)CN([C@@H](C)CO)S2(=O)=O
  -2.1 | i
(46) C[C@H]1CCCCO[C@H](CN(C)S(=O)(=O)c2ccccc2)[C@@H](C)CN([C@@H](C)CO)C(=O)c2cc(NC(=O)c3ccccc3)ccc2O1
  -0.9 | i
(47) C[C@H]1CN([C@@H](C)CO)C(=O)c2cccc(NC(=O)NC3CCCCC3)c2O[C@@H]1CN(C)Cc1ccc(C(=O)O)cc1
  -8.4 | i
(48) CO[C@@H]1CN(C)C(=O)c2ccc(NC(=O)C3CCC3)cc2OC[C@@H](C)N(CC2CCCCC2)C[C@@H]1C
  -2.7 | i
(49) CCCC#Cc1ccc2c(c1)O[C@@H](CN(C)C(=O)CC)[C@@H](C)CN([C@H](C)CO)S2(=O)=O
  3.7 | i
(50) O=C([C@H]1[C@H](CO)[C@H]2Cn3c(cccc3=O)[C@H]2N1CC1CCCC1)N1CCOCC1
  0.0 | i
(51) COc1ccc(S(=O)(=O)N(C)C[C@H]2OCCCC[C@H](C)Oc3ccc(NS(=O)(=O)c4ccc(C)cc4)cc3C(=O)N([C@H](C)CO)C[C@@H]2C)cc1
  -0.4 | i
(52) CN(C)C(=O)C[C@H]1C[C@H]2c3cc(NC(=O)NC4CCCC4)ccc3O[C@H]2[C@@H](CO)O1
  0.6 | i
(53) O=C(N[C@@H]1C=C[C@H](CC(=O)N2CCC(Cc3ccccc3)CC2)O[C@@H]1CO)c1cnccn1
  -5.7 | i
(54) C[C@H](CO)N1C[C@H](C)[C@@H](CN(C)Cc2ccc(Cl)c(Cl)c2)Oc2c(NS(C)(=O)=O)cccc2C1=O
  -0.5&1.5 | i
(55) C[C@@H]1CN([C@H](C)CO)C(=O)c2c(c3ccccc3n2C)-c2ccccc2CO[C@H]1CN(C)C(=O)Nc1cccc(Cl)c1Cl
  0.0 | i
(56) C[C@H]1CN([C@@H](C)CO)C(=O)c2cc(NC(=O)Cc3ccccc3)ccc2O[C@H]1CN(C)Cc1ccc(C(=O)O)cc1
  -3.3 | i
(57) COCC(=O)Nc1ccc2c(c1)C(=O)N(C)C[C@H](OC)[C@H](C)CN(C(=O)NC(C)C)[C@@H](C)CO2
  -2.2 | i
(58) C[C@@H]1CN([C@@H](C)CO)S(=O)(=O)c2ccc(C3=CCCC3)cc2O[C@@H]1CN(C)S(=O)(=O)c1ccc(F)cc1
  -3.4 | i
(59) COc1ccc2c3c(n(C)c2c1)[C@@H](CO)N(C(C)=O)CC31CN(C(=O)Nc2ccc(F)cc2)C1
  -2.7 | i
(60) COC(=O)c1cc2c(c3c4cc(F)ccc4n(S(=O)(=O)c4ccccc4)c13)C(=O)N(Cc1ccc(N(C)C)cc1)C2
  1.5 | i

# An excerpt of these results, with each value named.
34: Cc1ccc(S(=O)(=O)N(C)C[C@@H]2Oc3ccc(NS(C)(=O)=O)cc3C(=O)N([C@@H](C)CO)C[C@H]2C)cc1
- AF4-AF9 inh: -1.0
- FGF22 binding: i
35: Cc1noc(C)c1S(=O)(=O)Nc1ccc2c(c1)C(=O)N([C@@H](C)CO)C[C@@H](C)[C@H](CN(C)Cc1ccc3c(c1)OCO3)OCCCC[C@H](C)O2
- AF4-AF9 inh: -0.5
- FGF22 binding: i
36: C[C@H]1CN([C@@H](C)CO)S(=O)(=O)c2ccc(-c3cccc(C(=O)N(C)C)c3)cc2O[C@@H]1CN(C)C(=O)Nc1ccccc1
- AF4-AF9 inh: -10.4
- FGF22 binding: i
37: CCCNC(=O)N[C@H]1C=C[C@@H](CC(=O)N2CCN(C)CC2)O[C@@H]1CO
- AF4-AF9 inh: 6.4
- FGF22 binding: i

# The list goes on.
# Values run as follows: AF4-AF9 inh | FGF22 binding
(61) COc1ccccc1C#Cc1ccc([C@@H]2[C@H]3CN(C(=O)C4CCC4)CCCCN3[C@H]2CO)cc1
  -2.9 | i
(62) C[C@@H]1CN([C@@H](C)CO)C(=O)c2cccc(NC(=O)c3ccc(-c4nccs4)cc3)c2O[C@@H]1CN(C)Cc1ccc(C(=O)O)cc1
  -1.5 | i
(63) CO[C@H]1CN(C)C(=O)c2cc(NC(=O)C3CCC3)ccc2OC[C@H](C)N(Cc2cccnc2)C[C@H]1C
  -1.2 | i
(64) C[C@@H]1CN([C@H](C)CO)C(=O)c2cc(NC(=O)Nc3ccccc3)ccc2O[C@@H]1CN(C)Cc1ccc(-c2ccccc2)cc1
  -0.7 | i
(65) CN1CCN(C(=O)C[C@@H]2CC[C@H]3[C@@H](COC[C@@H](O)CN3CC3CCCCC3)O2)CC1
  -1.5 | i
(66) O=C(c1cccnc1)N1CC2(C1)[C@H](c1ccccc1)[C@H](CO)N2C(=O)CC1CC1
  -0.6 | i
(67) COc1ccc(-c2ccc([C@@H]3[C@H](CO)N4CCCCN(C(=O)NC(C)C)C[C@@H]34)cc2)cc1
  0.4 | i
(68) Cc1ccc(S(=O)(=O)N[C@H]2C=C[C@@H](CC(=O)NCc3ccc(Cl)c(Cl)c3)O[C@@H]2CO)cc1
  -2.0 | i
(69) CCCN(C)C[C@H]1Oc2cc(C#Cc3ccc(OC)cc3)ccc2S(=O)(=O)N([C@@H](C)CO)C[C@H]1C
  5.8 | i
(70) COc1ccc2c3c(n(C)c2c1)[C@@H](CO)N(C(=O)c1cnccn1)CC31CCN(C)CC1
  -1.3 | i
(71) O=C(CCN1CCCCC1)NCC[C@H]1CC[C@@H](NC(=O)C2CCCC2)[C@H](CO)O1
  -0.3 | i
(72) C[C@H]1CN([C@@H](C)CO)C(=O)c2cc(NC(=O)Nc3ccc(F)cc3)ccc2O[C@H]1CN(C)S(=O)(=O)c1cn(C)cn1
  -12.9 | i
(73) C[C@H](CO)N1C[C@H](C)[C@H](CN(C)C(=O)Nc2cccc(F)c2)Oc2cc(/C=C/c3ccccc3)ccc2S1(=O)=O
  -7.2 | i
(74) COc1ccc(NC(=O)Nc2ccc3c(c2)C(=O)N([C@H](C)CO)C[C@H](C)[C@@H](CN(C)S(C)(=O)=O)OCCCC[C@@H](C)O3)cc1
  -5.3 | i
(75) C/C=C/c1ccc([C@H]2[C@@H](CO)N(C(=O)CC)[C@@H]2CNC(=O)CC)cc1
  0.3 | i
(76) Cc1noc(C)c1NC(=O)N(C)C[C@@H]1Oc2ccc(NC(=O)CCC(F)(F)F)cc2CC(=O)N([C@@H](C)CO)C[C@H]1C
  -2.7 | i
